# Assay outcomes: PubChem, PCMD
# Biofilm kill mix: mixtures killing C. albicans biofilm; C. albicans biofilm persisters + clotrimazole, fluorescence viability; primary screen in compound mixtures of four per well; inhibition, % at 7.6 µM; 120,000 compounds, 0.02% hits; AID 1242;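 active means inhibition above 30.3% in the primary screen of four-compound pools, then above 30% when the compound was retested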;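 further: compounds exposed to preformed 24 h biofilms for 48 h; the number belongs to the whole pool; some results filed as inactive read as strong as hits; inactives centre near 12; 0% = biofilm with clotrimazole alone and 100% = kill control; retested singly at about 60 µM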
#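 Incubation: 24 h biofilm formation, then 48 h compound exposure, 37 °C | Material: C. albicans biofilms | Buffer or medium: RPMI/MOPS medium, pH 7.0 | Measured by: 2-h Alamar Blue fluorescence, 535/590 nm excitation/emission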
# Numbers without * were called inactive. An excerpt; rates above refer to the full screens.
mol	Biofilm kill mix
O=C(N/N=C/c1ccc2c(c1)OCO2)c1cc(-c2ccccc2Cl)nc2ccccc12	16
O=C(N/N=C/c1sc2ccccc2c1O)c1ccccc1	17
COc1ccc(C(=O)Nc2nc3cc4c(cc3s2)OCO4)c(OC)c1	8
COc1ccc(-c2nc3ccccn3c2CN2CCN(c3ccccc3F)CC2)cc1	15
CC(=O)c1ccccc1N(C(=O)Cn1nnc2ccccc21)C(C(=O)NCC1CCCO1)c1ccc(N2CCOCC2)cc1 (stereo not drawn)	16
CC(C)(C)c1ccc(C(=O)Nc2ccc(S(N)(=O)=O)cc2)cc1	9
Cc1ncc([N+](=O)[O-])n1CCOC(=O)c1ccc(Br)cc1	10
O=c1[nH]ncn1-c1ccccc1	6
CN1c2ccc(Cl)cc2C(=O)NC1C1CC=CCC1 (stereo not drawn)	22
CN1CCCNc2nc3ccccc3nc21	18
Clc1ccccc1/C=N/NC1=Nc2cccc3cccc1c23	14
CCN=C1SC(CC(=O)Nc2ccc3c(c2)OCO3)C(=O)N1CC (stereo not drawn)	10
Cc1cccc2nc(COc3ccc(Cl)c4cccnc34)cn12	15
c1ccc2[nH]c(SCC3CCCCO3)nc2c1 (stereo not drawn)	14
CCc1ccc(C(=O)/C=C/NCc2ccc(F)cc2)cc1	13
Cc1cc2sc(C(=O)O)c(C)c2s1	11
C(#CCN1CCOCC1)COC(c1ccccc1)c1ccccc1	16
Cc1csc(SCC(=O)Nc2sccc2C#N)n1	12
O=C(N/C(=C/c1cccs1)C(=O)N1CCOCC1)c1ccco1	6
O=C(COc1ccc(Cl)cc1)Nc1cc(S(=O)(=O)N2CCCCC2)ccc1N1CCCCC1	21
CC(=O)Oc1cc2c3c(c1)/C(=C1/SC(=S)NC1=O)C(=O)N3C(C)(C)C=C2C	9
O=C(NCC(c1ccc(F)cc1)N1CCOCC1)c1ccccc1F (stereo not drawn)	16
CCOc1ccc(NS(=O)(=O)c2ccc(C)c(C(=O)NCCCn3ccnc3)c2)cc1	5
CCCCNc1ccc(C(CC(N)=O)NC(=O)Cc2cccc3ccccc23)cc1[N+](=O)[O-] (stereo not drawn)	5
CCn1nc(C)c(CN2CCc3c([nH]c4ccccc34)C2c2ccc(F)c(OC)c2)c1C (stereo not drawn)	12
O=C(CSc1nnc(-c2ccccc2Cl)o1)Nc1ccc2c(c1)OCCO2	12
CCOc1cc(N2CCOCC2)c(OCC)cc1NC(=O)Cc1ccccc1	13
Cc1cccc(CS(=O)(=O)Cc2ccc(C(=O)NCc3cccs3)o2)c1	2
O=C(NCc1ccco1)C1CCCN1C(=O)Nc1cccc(Cl)c1 (stereo not drawn)	2
CCCn1c(=O)[nH]c(=O)c2[nH]cnc21	10
CC(C)C1Nc2c(C(=O)O)cccc2C(Nc2ccccc2C(=O)O)C1(C)C (stereo not drawn)	3
CC(=O)NCc1ccc(S(=O)(=O)NC2CCN(Cc3ccccc3)CC2)cc1	16
O=C(O)Cc1coc2ccc3ccccc3c12	16
CCCCC(=O)Nc1cc(C)c(NC(=O)c2cccs2)cn1	4
O=C(Nc1ccc(COc2ccccc2)cc1)Oc1ccccc1N1CCOCC1	20
CCN(C(=O)COC(=O)/C=C/c1cnc2ccccc2n1)C1CCS(=O)(=O)C1 (stereo not drawn)	9
CCOC(=O)c1c(C)[nH]c(C)c1C(=O)CSc1nc2ccccc2c(=O)n1-c1ccccc1C	17
CN(C)S(=O)(=O)c1ccc(NC(=O)COC(=O)C2COc3ccccc3O2)cc1 (stereo not drawn)	-3
Cc1ccc(NC(=O)CN(C)C(=O)CSc2nc(C)cs2)cc1	-5
O=C(CSc1ccccn1)NCc1ccc2c(c1)OCO2	6
Cc1ccc(CNC(=O)COC(=O)c2cncc(Br)c2)cc1	13
COc1ccc(C(=O)NCC(=O)OCC(=O)N2CCC(C)CC2)cc1OC	-3
COc1ccccc1/C=N/NC(=O)CCSc1ccccc1	12
COc1ccc(-c2noc(CCCC(=O)Nc3ccc(C(N)=O)cc3)n2)cc1OC	8
C/C=C(/C)C(=O)Nc1cccc(C2=NOC3(C2)C[C@@H](C(N)=O)N(C(=O)CCCCC)C3)c1 (stereo partly drawn)	18
CC(=O)NC1C(OCc2ccccc2)OC(CO)C(OC(C)=O)C1OC(C)=O (stereo not drawn)	14
COc1cc(C(=S)N2CCOCC2)ccc1O	34
S=c1nc(-c2ccc(Cl)cc2)[nH][nH]1	27
O=C(CCN1C(=O)C2CC=C(Cl)CC2C1=O)NCc1ccccc1 (stereo not drawn)	12
Cc1c(C(=O)O)oc2c(F)cccc12	9
COc1ccc(CN2C=C3C(=O)C(C)(OC(=O)C4CCCC4)C(=O)C=C3C=C2c2ccsc2)cc1 (stereo not drawn)	21
CC(C)c1nc(Cl)c(C#N)c2c1COC(C)(C)C2	20
CCCC(=O)Nc1ccc(-c2ccc(NC(=O)CCC)cc2)cc1	9
Cc1cc([N+](=O)[O-])ccc1NC(=O)C(C)N1CCN(c2ccccn2)CC1 (stereo not drawn)	14
CCOc1ccccc1CNn1nnnc1N	4
Cc1scc(C(=O)NNC(=S)NC(C)c2ccccc2)c1C (stereo not drawn)	8
COc1ccccc1OCC(=O)n1cc(C(=O)c2cc(Cl)cc(Cl)c2O)cn1	16
Cc1ccc(-c2cc(-c3ccccc3)c(C#N)c(Br)n2)cc1	8
CO/N=C/Cc1c([N+](=O)[O-])c(C)nn1C	-32
CC(C)C(OC(=O)C1=Cc2ccccc2OC1)C(=O)NC1CCCC1 (stereo not drawn)	15

# (more compounds)
mol	Biofilm kill mix
CCC(C)(C)C(=O)Nc1cc([N+](=O)[O-])ccc1F	9
CN1CCN(C(=S)c2ccc(-c3cc(Cl)ccc3Cl)o2)CC1	23
CC(C)OC(=O)CSc1nc(N)c(C#N)cc1C#N	9
CC(C)N1CCC(N2CCN(Cc3cnc(-c4ccccc4)s3)CC2CCO)CC1 (stereo not drawn)	7
CCOC(=O)c1sc2nc(C)nc(SCC(=O)N(C)C3CCS(=O)(=O)C3)c2c1C (stereo not drawn)	4
CN(C(=O)c1ccc(OC2CCN(C(=O)c3cccnc3)CC2)cc1)C1CCCCC1	21
C/C(=N\NC(=O)COc1c(C)cccc1C)c1cccs1	0
Cc1cc(C)n(C(=O)CCNC(=O)c2ccccc2Cl)n1	16
CC(=O)c1cn(CC(=O)Nc2ccc(C)cc2C)c2ccccc12	7
COc1ccc2nc(Cl)c(C#N)cc2c1	-4
Cc1cc(C)nc(NCCC(=O)O)n1	19
CC(C)Oc1nc(-c2ccccc2Cl)nc2ccccc12	-9
NC(=O)c1cc2c3ccccc3ccn2c1-c1ccccc1	14
COCCNC(=S)N/N=C(\C)c1ccc(OC(F)F)cc1	11
NC1=NC(=Nc2ccc(Br)cc2)c2ccccc21	18

# In another format: results already given
CCC(C)(C)C(=O)Nc1cc([N+](=O)[O-])ccc1F
  Biofilm kill mix: 9

Cc1cc(C)n(C(=O)CCNC(=O)c2ccccc2Cl)n1
  Biofilm kill mix: 16

CC(C)N1CCC(N2CCN(Cc3cnc(-c4ccccc4)s3)CC2CCO)CC1 (stereo not drawn)
  Biofilm kill mix: 7

COCCNC(=S)N/N=C(\C)c1ccc(OC(F)F)cc1
  Biofilm kill mix: 11

# Continuation.
mol	Biofilm kill mix
CC(C)(C)C(=O)COC(=O)c1ccc(N)c([N+](=O)[O-])c1	8
COc1cc(/C=N/NC(=O)c2ccoc2C)cc(OC)c1O	14
N#Cc1ccc(/C=C/C(=O)c2ccco2)cc1	15
Cc1nn(CC(=O)NCc2ccc(-n3cccn3)cc2)c(C)c1[N+](=O)[O-]	12
CCN(CC)S(=O)(=O)c1ccc(OC(C)C)c(NC(=O)c2c3c(nc4ccccc24)CCN(Cc2ccccc2)C3)c1	-3
Cc1cc(C)n(CC(O)CN(c2cccc([N+](=O)[O-])c2)S(=O)(=O)c2ccccc2)n1 (stereo not drawn)	8
Cc1ccc(Cl)cc1NC(=S)N(Cc1cccs1)C1CCCC1	14
COc1ccc(N2CCN(C(=O)c3cccc(F)c3)CC2)c([N+](=O)[O-])c1	15
CCO[C@@H]1OC(C(=O)NC2CC2)=C[C@H](c2ccc3c(c2)OCO3)[C@H]1CCCO	15
O=C(O)c1[nH]c2ccccc2c1C=NCc1ccccc1Cl	15
CC1(Br)C2CCCC1C2S(=O)(=O)c1ccccc1 (stereo not drawn)	13
CC1(C)SC(=S)N(/N=C/c2cccnc2)C1N(O)C(=O)NC1CCCCC1 (stereo not drawn)	24
Nc1ccc(NS(=O)(=O)c2ccccc2)cc1	10
CCC1ON(c2ccccc2)C2c3nc4ccccc4n3CC12 (stereo not drawn)	4
Cc1nc(C)c(C(=O)NNC(=O)c2ccc(Br)cc2)s1	7

# Some values from above.
# For Biofilm kill mix, CC(C)(C)C(=O)COC(=O)c1ccc(N)c([N+](=O)[O-])c1 has the entry 8
# For Biofilm kill mix, Cc1nn(CC(=O)NCc2ccc(-n3cccn3)cc2)c(C)c1[N+](=O)[O-] has the entry 12
# For Biofilm kill mix, CCO[C@@H]1OC(C(=O)NC2CC2)=C[C@H](c2ccc3c(c2)OCO3)[C@H]1CCCO has the entry 15

# Next part
compound	Biofilm kill mix
O=C(O)c1ccc(/C=C/c2ccc3cccc(O)c3n2)cc1	31
O=C(NNc1ccccc1C(F)(F)F)c1cccs1	9
CCC(C)c1ccccc1OCCOCCN1CCCC1 (stereo not drawn)	12
O=C(C1CCCN(Cc2nc(-c3cccs3)no2)C1)N1CCOCC1 (stereo not drawn)	13
Nc1nc(NCCCN2CCOCC2)nc(Nc2ccccc2)c1[N+](=O)[O-]	15
O=C(CCCOc1ccccc1)Nc1nc2ccccc2[nH]1	5
CC(=O)c1ccc(N2CCN(C(=O)C3CCCN(S(=O)(=O)c4c(C)[nH]c(=O)[nH]c4=O)C3)CC2)cc1 (stereo not drawn)	1
Cc1c(F)cccc1NS(=O)(=O)c1ccc(OCCNS(C)(=O)=O)cc1	-3
Cc1cc(=O)c(C(=O)O)nn1-c1ccc(Cl)cc1	5
O=C(COc1ccc2ccccc2c1Br)NC(=S)Nc1cccc(CO)c1	17
O=C(N/N=C/c1cn(-c2ccccc2)nc1-c1cc2ccccc2o1)c1c[nH]c2ccccc12	9
CSCC[C@H](NC(=O)CCCn1nnc2ccccc2c1=O)C(=O)O	21
CCSc1nnc(NC(=O)C2Cc3ccccc3CN2S(=O)(=O)CC)s1 (stereo not drawn)	12
CC(C)(C)c1ccc(OCc2ccc(C(=O)N3CCOCC3)o2)cc1	21
Brc1ccc(OCc2nnc3n2CCC3)cc1	15
S=C(NCCN1CCOCC1)Nc1ccc(Cl)cc1	9
CCn1c(=O)ccc2cc([N+](=O)[O-])ccc21	4
CC1=C(C(=O)Nc2cccc(F)c2)C(c2ccsc2)C2=C(CC(C)(C)CC2=O)N1 (stereo not drawn)	21
CCCc1cc(NC(=O)CCl)n(-c2ccccc2)n1	10
Cc1ccc(CC(CC(=O)O)C(=O)NCc2ccccc2)cc1 (stereo not drawn)	13
CON1C(=O)C(=O)N(OC)C2CCCCCC21 (stereo not drawn)	6
O=C(/C=C/Nc1ccccc1F)c1cccs1	5
O=C(O)CSc1nnc2c(n1)[nH]c1ccccc12	2
COc1ccccc1-c1cc(C(=O)NN)[nH]n1	13
CC1CCN(C(=O)C2(NC(=O)Nc3cccc(F)c3)CCCCC2)CC1	19
C/C(=N\NC(=O)c1cccc(S(=O)(=O)N2CCCCC2)c1)c1ccc(C)o1	7
CCC(=O)Nc1ccc(C(=O)Nc2cccc(C)n2)cc1	35
Cn1cc(CN(Cc2ccccc2)C[C@@H]2CCC(=O)N2)c(-c2ccccc2F)n1	6
COc1ccccc1NC(=O)c1ccc(NC(=O)Cc2n[nH]c(=O)c3ccccc23)cc1	12
Cc1oc(=O)c(NC(=O)c2ccccc2)cc1C(C)O (stereo not drawn)	13

# Among those listed so far, these have a cyano group:
compound	Biofilm kill mix
Cc1csc(SCC(=O)Nc2sccc2C#N)n1	12
CC(C)c1nc(Cl)c(C#N)c2c1COC(C)(C)C2	20
Cc1ccc(-c2cc(-c3ccccc3)c(C#N)c(Br)n2)cc1	8
CC(C)OC(=O)CSc1nc(N)c(C#N)cc1C#N	9
COc1ccc2nc(Cl)c(C#N)cc2c1	-4
N#Cc1ccc(/C=C/C(=O)c2ccco2)cc1	15

# Carrying on.
compound	Biofilm kill mix
CCOC(=O)c1ccc2c(c1)nc(SCC(=O)N1CCOCC1)n2CC	2
CCOc1cc(/C=N/NC(=O)Nc2ccccc2)ccc1O	16
O=C1C2CC=CCC2C(=O)N1c1ccc(NCCc2ccc(O)cc2)c([N+](=O)[O-])c1 (stereo not drawn)	-9
CCOc1ccccc1NC(=O)c1ccc(-n2cncn2)nc1	12
O=C(Nc1ccc(NC(=O)C2CCCCC2)nc1)c1ccccn1	-2
CC(C)N(C(=O)CSc1nc2ccccc2n1Cc1ccc(F)cc1)C(C)C	14
O=C(Nc1ccc(S(=O)(=O)NCc2ccccc2)cc1)c1ccc(Br)o1	11
COc1ccccc1NC(=O)Nc1ccc2[nH]c(=O)[nH]c2c1	-9
CCCCCCCOC(=O)C[N+](C)(C)CCOC1CC2CCC1(C)C2(C)C (stereo not drawn)	8
CCOc1cc(C(=O)NCc2ccccc2)ccc1OCC(=O)N1CCOCC1	8
CCN1/C(=C2\C(=O)N(c3ccccc3)N=C2C)C=Cc2cc(C)ccc21	18
O=C(Nc1c2c(nc3ccccc13)CCCC2)c1ccccc1Br	5
Cc1ccsc1C(=O)N1CCC(CO)(Cc2ccccc2)CC1	14
CC(C)OP(=O)(OC(C)C)C(NC(=O)c1ccccc1)C(N)=O (stereo not drawn)	14
CCOc1ccc(Cc2noc3c2C(=O)CC(C)(C)C3)cc1OCC	3
Cc1cc(C)nc(N/N=C/C2=C(N3CCOCC3)C(=C/c3ccccc3)/CC2)n1	6
